TRPML1 agonist – qHTS for Agonists of the Human Mucolipin Transient Receptor Potential 1 (TRPML1); Mucolipin-1 (Homo sapiens), Q9GZU1; TRPML1-expressing cells, Ca2+ dye fluorescence, FDSS; host cell line not named in the record; reference of the full effect not given here; activation, % (test concentration not listed); 0.12% of 410,000 active; AID 624414, 2012; in the data active = activation above about 50%; inconclusive = about 30% to 50%; inactive = below about 30%; also: 0% is about no effect; the text of the record puts the active cut at 80%
Target sequence (Q9GZU1 whole entry, looked up): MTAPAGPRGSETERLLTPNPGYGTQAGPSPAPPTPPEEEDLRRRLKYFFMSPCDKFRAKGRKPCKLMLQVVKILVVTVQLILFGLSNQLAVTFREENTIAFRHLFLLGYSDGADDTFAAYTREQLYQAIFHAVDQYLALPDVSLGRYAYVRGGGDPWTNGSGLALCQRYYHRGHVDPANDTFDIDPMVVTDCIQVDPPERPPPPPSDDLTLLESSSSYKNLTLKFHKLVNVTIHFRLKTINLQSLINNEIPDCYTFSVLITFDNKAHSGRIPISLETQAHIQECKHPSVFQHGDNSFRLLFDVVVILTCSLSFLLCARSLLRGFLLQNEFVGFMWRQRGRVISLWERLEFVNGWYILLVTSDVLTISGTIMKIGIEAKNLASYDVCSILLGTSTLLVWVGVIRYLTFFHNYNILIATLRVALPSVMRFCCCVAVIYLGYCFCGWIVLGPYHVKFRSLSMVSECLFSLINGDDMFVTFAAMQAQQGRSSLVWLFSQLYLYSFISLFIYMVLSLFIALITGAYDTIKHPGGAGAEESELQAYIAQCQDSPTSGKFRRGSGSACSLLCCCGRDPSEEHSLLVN
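Agonist activity was taken from a 110 s kinetic Ca2+ dye read on the FDSS after pinning compounds onto TRPML1-DL cells. The cells were seeded at 1,500/well with Tet inducer, incubated about 16 h, then dye-loaded at room temperature.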
D2 agonist – Beta-Arrestin HTS for Positive Allosteric Modulators of the Human D2 Dopamine Receptor: Agonists; activation, % (concentration not given with the values); DiscoveRx PathHunter D2 beta-arrestin, luminescence, 90 min; 100% = 57 uM dopamine signal; D(2) dopamine receptor (Homo sapiens), P14416; 0.084% of 360,000 active; in the data active = activation above about 40%; inconclusive = about 15% to 40%; inactive = below about 15%; also: compound concentration not given in the record; the text of the record calls up to 30% inactive
Target sequence (P14416 whole entry, looked up): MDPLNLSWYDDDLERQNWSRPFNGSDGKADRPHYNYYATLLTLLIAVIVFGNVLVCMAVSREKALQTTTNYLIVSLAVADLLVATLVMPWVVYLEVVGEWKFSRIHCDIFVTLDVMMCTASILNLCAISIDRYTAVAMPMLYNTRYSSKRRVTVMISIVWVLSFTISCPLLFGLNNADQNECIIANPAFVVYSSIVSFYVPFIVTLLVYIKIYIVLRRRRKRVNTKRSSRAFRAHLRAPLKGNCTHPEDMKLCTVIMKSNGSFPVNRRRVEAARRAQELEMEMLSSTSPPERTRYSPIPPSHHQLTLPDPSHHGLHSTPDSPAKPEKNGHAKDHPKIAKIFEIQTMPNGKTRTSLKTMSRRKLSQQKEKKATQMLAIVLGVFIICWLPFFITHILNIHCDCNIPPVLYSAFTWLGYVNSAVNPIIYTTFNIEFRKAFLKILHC
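Agonist mode: compounds alone added to overnight-plated D2 PathHunter cells for 90 min at 37 C, with 57 uM final dopamine (EC100) defining full response. Beta-arrestin recruitment detected by chemiluminescent reagent, read after 1 h at ambient temperature.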
Six1-Eya2 blk – qHTS Assay for Inhibitors of the Six1/Eya2 Interaction; Homeobox protein SIX1 (Homo sapiens) + Protein phosphatase EYA2 (Homo sapiens), …; AlphaScreen GST-Six1/His-Eya2 binding, biochemical; hits give low values; control for the full effect not named in the record; activity change, % (concentration not given with the values); 0.56% of 360,000 active; AID 651725, 2012; in the data active = activity change below about -65%; inconclusive = about -30% to -65%; inactive = above about -30%; also: % is scaled to controls: 0 for no effect and ±100 for the full control effect
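Homogeneous AlphaScreen proximity assay pairing GST-Six1 with His-tagged Eya2 (added as 5X mix: 250 nM and 500 nM) in 50 mM Tris pH 8.0, 300 mM NaCl, 1 mM TCEP. Glutathione donor and nickel acceptor beads; 1 h, 37 °C, dark.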
PINK1 modulator – A Quantitative High throughput Screen to Identify Chemical Modulators of PINK1 Expression; 0.2% of 410,000 active; PINK1 immunofluorescence, high-content cytometry, 24 h; Potency, µM (titrated, usually from 76.6 µM), without a hit: at the top dose activation (PINK1 increase), most hits filed as activators; active = well fitted activation curve with a large enough effect; inconclusive = small, poorly fitted or top-dose-only effect; inactive = flat fitted curve, though single readings scatter; cell line not stated here;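 also: potency is read from the fitted curve at half-maximal effect; % of control where 0% means no effect; nearly all actives have a fitted effect of over 65% in size; a mitochondrial uncoupler was the plate control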
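Compound titrations (5 concentrations, 24 h) on a stable cell line; DMSO and CCCP controls. Endpoint: fixed-cell PINK1 immunofluorescence with mitochondrial, cell and nuclear markers, scanned by microplate cytometer.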
TRPML1 blocker – qHTS for Inhibitors of the Human Mucolipin Transient Receptor Potential 1 (TRPML1). AID 624415, 2012. activity change, negative = inhibition, % (concentration not given with the values). 0.02% of 390,000 active. Mucolipin-1 (Homo sapiens), Q9GZU1. TRPML1-inducible cells, Ca2+ dye fluorescence, FDSS; hits give low values; inhibition of EC80 agonist-evoked calcium signal; in the data active means activity change below about -50%; inconclusive means about -30% to -50%; inactive means above about -30%;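 also: stimulus is agonist 54-4 at its EC80 concentration; % is scaled to controls: 0 for no effect and ±100 for the full control effect; compound concentration not given in the record; the text of the record puts the active cut at -80%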
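Calcium fluorescence in TRPML1-DL cells induced overnight with Tet: a 110 s read after compound pin addition, then a 110 s antagonist read after challenge with 54-4 at 4 uM final (EC80).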
CtBP-E1A inh – qHTS Assay for Inhibitors of the CtBP/E1A Interaction. CtBP / adenovirus E1A interaction (AlphaScreen). AlphaScreen GST-E1A/His-CtBP binding, 1536-well; hits give low values; control for the full effect not named in the record. activity change, % (test concentration not listed). 0.49% of 340,000 active. AID 651724, 2012; in the data active means activity change below about -65%; inconclusive means about -30% to -65%; inactive means above about -30%; also: % is scaled to controls: 0 for no effect and ±100 for the full control effect; compound concentration not given in the record
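Steps: dispense buffer (Tris pH 8.0, NaCl 300 mM, TCEP 1 mM, BSA, Tween 20); add 5X protein mix (GST-E1A, His-CtBP, 125 nM each); pin 23 nL compound; 2 h at 37 °C, dark; add 5X beads (50 ug/mL); 1 h; read.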
The depositor's hits bear a star; ? = inconclusive; / = no result given; [ ] = remark or other dose. The order is random; 1% or so of the library scored in one or more.

compound	TRPML1 agonist	D2 agonist	Six1-Eya2 blk	PINK1 modulator	TRPML1 blocker	CtBP-E1A inh
Cc1cc(NC(=O)C2CCCN(S(=O)(=O)c3cccc4nsnc34)C2)ccc1Br (configuration not stated)	-0.6	/	/	0.0%	7	/
N#CC1=C(N)Oc2n[nH]c(-c3cccs3)c2C1c1cccs1 (configuration not stated)	-1.2	-4.8	-5	-0.7%	-8	-4
CN(Cc1nc(-c2ccccc2)no1)C(=O)c1ccco1	0.8	-2.7	7	1.2%	-6	6
CCN(c1ccccc1)S(=O)(=O)c1ccc(C(=O)Nc2ccccn2)cc1	3.7	-5.2	0	2.8%	2	5
Cc1onc(-c2c(F)cccc2Cl)c1C(=O)NCc1ccc2c(c1)OCO2	-0.2	-2.5	1	-0.3%	1	2
CC(C)(C)c1ccc(Oc2ccc(NC(=O)CCC(=O)OCC(=O)c3ccccc3)cc2)cc1	0.2	/	/	3.6%	5	/
CC(=O)c1c(C)[nH]c(C(=O)OCc2cc(-c3ccco3)on2)c1C	0.1	0.2	18	3.6%	-25	-15
Cc1nn(CCCC(=O)NCc2ccc(F)cc2)c(=O)c2c1sc1ccccc12	-0.6	/	/	0.6%	-12	/
Cc1ccc(N(C(=O)CNC(=O)c2ccco2)C(C(=O)NCC2CCCO2)c2ccccc2)c(C)c1 (configuration not stated)	0.0	-2.5	7	5.5%	-8	24
CCNc1nnc(SCC(=O)c2c(N)n(C3CC3)c(=O)[nH]c2=O)s1	-0.1	-4.1	6	1.2%	-7	/
COc1ccc(NC(=O)c2ccccc2NC(=O)CSc2ccc(Cl)cc2)cc1	0.1	-3.1	-5	2.3%	18	1
Cn1c(=O)c(=O)n(C)c2cc(S(=O)(=O)N3CCN(C4CCCCC4)CC3)ccc21	-0.7	-0.3	3	5.9%	-1	1
Cc1c(N(C(=O)c2ccccn2)C2(C(=O)NC3CCCC3)CCCCC2)c(=O)n(-c2ccccc2)n1C	0.6	-17	0	1.0%	-2	0
Cc1nn(-c2ccc(F)cc2)c(Cl)c1C(=O)OC(C)C(=O)N(C)C1CCCCC1 (configuration not stated)	0.0	-1.0	-4	3.2%	-3	/
COc1ccc(N2CCN(C(=O)c3cccc(S(=O)(=O)N4CCOCC4)c3)CC2)cc1	-0.1	-3.6	0	-1.2%	-10	3
CC(C)(C)NC(=O)C(c1ccncc1)N(Cc1cccs1)C(=O)Cn1nnc(-c2ccc(F)cc2)n1 (configuration not stated)	-0.4	-0.1	-3	-1.8%	2	-7
NNC(=O)c1ccccc1CO	/	0.9	0	-0.2%	/	0
O=Cc1c(NCCc2cccc(F)c2)c2ccccc2[nH]c1=O	0.2	-0.9	-4	-1.1%	28	1
O=C(CN1CCCCC1)N/N=C/c1ccccc1Br	0.4	-4.1	4	-0.9%	-5	-7
CC(C)(C)CC(=O)Nc1nnc(SCC(=O)Nc2ccccc2F)s1	1.0	-4.8	1	0.6%	41	-1
COc1ccc(N(CC(=O)NCc2ccc(F)cc2)C(=O)c2snc(C(N)=O)c2N)cc1	-1.1	-0.9	12	2.8%	-8	23
O=C1Cc2cc(S(=O)(=O)NCc3ccccc3Cl)cc3c2N1CCC3	-0.6	-2.1	-4	0.8%	-3	0
O=C(NC(Cc1ccccc1)C(=O)O)/C(=C\c1ccco1)NC(=O)c1ccccc1 (configuration not stated)	7.9	-4.7	-5	0.7%	-14	-2
OC1(C#CCCN2CCCCC2)c2ccccc2-c2ccccc21	-0.3	2.5	4	-1.2%	-2	10
COC(=O)Nc1nnc(/C=C/c2ccccc2)s1	0.8	0.7	13	-0.9%	1	12
CN(C1CCS(=O)(=O)C1)S(=O)(=O)c1ccc(N2CCCC2=O)cc1 (configuration not stated)	0.5	-1.8	5	/	-12	9
COc1cc(OC)cc(C2=Cc3ccc(OC)cc3C(CC(C)=O)N2c2ccc(-c3cccs3)cc2)c1 (configuration not stated)	-0.5	/	20	-0.8%	/	29
CC(=O)NCCOc1nc(N2CCCCC2)nc(N2CCCCC2)n1	-1.3	-2.4	10	-1.2%	6	-3
O=C(C1CCC1)N1CCc2cc(S(=O)(=O)NCc3ccco3)ccc21	-0.7	1.4	-3	0.8%	24	-4
CCCCn1c(CNC(=O)CC)nc2ccccc21	0.4	-6.0	7	-0.7%	11	2

An excerpt from the list above, as a working copy:
compound	TRPML1 agonist	D2 agonist	Six1-Eya2 blk	PINK1 modulator	TRPML1 blocker	CtBP-E1A inh
CC(=O)NCCOc1nc(N2CCCCC2)nc(N2CCCCC2)n1	-1.3	-2.4	10	-1.2%	6	-3
O=C(C1CCC1)N1CCc2cc(S(=O)(=O)NCc3ccco3)ccc21	-0.7	1.4	-3	0.8%	24	-4
CCCCn1c(CNC(=O)CC)nc2ccccc21	0.4	-6.0	7	-0.7%	11	2

The results go on:
compound	TRPML1 agonist	D2 agonist	Six1-Eya2 blk	PINK1 modulator	TRPML1 blocker	CtBP-E1A inh
CN(C)c1ccc(C(C(=O)NCc2ccccc2)N(Cc2ccco2)C(=O)c2snc(C(N)=O)c2N)cc1 (configuration not stated)	5.4	6.4	-22	-1.1%	17	-23
Cc1ccc(NC(=O)c2cc(S(=O)(=O)N3CCc4ccccc43)cn2C)cc1C	1.4	-1.5	-4	-0.1%	0	4
c1ccc(-c2nn3c(-c4ccccc4)nnc3o2)cc1	-0.3	3.1	-2	2.7%	14	-4
O=C(O)c1ccc2c(c1)-c1nc3ccccc3n1C2=O	0.1	-2.1	5	-1.5%	6	4
CCC(C)NC(=O)N[C@@H](CCSC)C(=O)O (some centres not stated)	0.2	0.8	4	12%[38.3 µM]	-10	3
O=C(NC1CC(=O)N(c2ccc(Cl)cc2)C1)C1CC1 (configuration not stated)	0.1	-0.3	-4	1.9%	7	1
CCCn1c(CCc2ccccc2)n[nH]c1=S	0.4	-8.2	17	-1.2%	3	0
COCCNC(=S)NNc1cccc(C(=O)O)c1	-0.8	-3.6	-11	0.2%	24	-6
O=c1[nH]c(CSc2ccccn2)nc2c1oc1ccccc12	1.0	2.3	-1	-0.5%	20	6
CC1(C)CC(N=c2cc(-c3ccccc3)oc3ccc(Cl)cc23)CC(C)(C)N1	0.0	1.6	-10	-2.1%	3	-6
CCOc1ccccc1C(=O)OC(C)C(=O)Nc1ccc(S(=O)(=O)N2CCCC2)cc1 (configuration not stated)	0.0	-2.2	-1	0.4%	-2	/
O=C(c1cccs1)N1CCN(Cc2ccccc2[N+](=O)[O-])CC1	-0.6	-1.5	9	-1.1%	1	8
Cc1ccccc1NC(=O)c1sc(NC(=O)C2CC2)nc1C	-0.4	1.6	-4	0.2%	-5	5
COc1ccc(C(=O)/C=C/Nc2c(C)n(C)n(-c3ccccc3)c2=O)cc1OC	1.8	-3.5	-2	13%	-16	-2
CC(C)Cc1nc(SCc2cccnc2)c2c(=O)n(C)c(=O)n(C)c2n1	2.9	-3.2	-16	0.5%	-2	-12
CCONC(=O)Nc1ccccc1[N+](=O)[O-]	0.1	1.0	8	0.7%	5	2
CC(NCC(=O)NCCc1ccc(S(N)(=O)=O)cc1)c1ccc(F)cc1 (configuration not stated)	0.3	2.2	19	-0.1%	23	-18
CCOC1=C2CN(S(=O)(=O)c3ccc(C)cc3)[C@H](c3cccs3)C[C@H]2[C@H]2C(=O)N(c3ccccc3)C(=O)[C@H]2C1	64*	-3.6	-5	1.1%	-12	-2
CC1(C(=O)NC2CCCCC2)CCC(=O)N1Cc1ccc2c(c1)OCO2 (configuration not stated)	-0.6	1.5	3	-1.7%	6	7
CC(C)C[C@H](NC(=O)c1nc[nH]c1C(=O)N1CCN(c2ccccc2)CC1)C(=O)OCc1ccccc1	2.7	-4.5	-21	0.4%	32	?
CCCCOCCCNC(=O)c1ccc(OCC)cc1	-0.5	-3.1	-1	1.2%	17	2
COc1ccc(COC(=O)c2ccc(S(=O)(=O)N3CCCCC3)cc2)cc1OC	5.6	0.8	1	7.4%	1	4
NC(=O)C1CCCN(S(=O)(=O)c2ccccc2)C1 (configuration not stated)	0.1	0.7	2	5.6%[38.3 µM]	-2	14
CCOC(=O)C(O)(CC(=O)Nc1cc(F)ccc1C)C(F)(F)F (configuration not stated)	0.6	-4.3	2	0.1%	8	4
Cc1ccc(C)c(N(C(=O)Cn2nnc(-c3cccs3)n2)C(C(=O)NC2CCCC2)c2ccncc2)c1 (configuration not stated)	-0.1	-0.5	7	8.5%	23	1
CCn1c2ccccc2c2cc(NC(=O)COc3cc(C)c(Cl)c(C)c3)ccc21	-0.3	/	/	-1.1%	-2	/
COc1ccc(C(=O)NC(C)c2nnc(SCC(=O)NC3=NCCS3)n2C)cc1 (configuration not stated)	-0.2	1.5	-6	2.1%	0	-2
COc1cc(C2c3sc(=O)[nH]c3SC3C(=O)N(c4ccc(Br)cc4)C(=O)C32)ccc1O (configuration not stated)	-0.6	-2.1	2	0.7%	15	2
CCn1c(=O)c(C(=O)NCc2ccc3c(c2)OCO3)c(O)c2ccccc21	0.0	-1.4	-10	4.4%	7	4

Limited to D2 agonist, for 2 of the compounds above:
smiles | D2 agonist
O=C(NC(Cc1ccccc1)C(=O)O)/C(=C\c1ccco1)NC(=O)c1ccccc1 (configuration not stated) | -4.7
OC1(C#CCCN2CCCCC2)c2ccccc2-c2ccccc21 | 2.5
